RE007 growth inh: less growth of the S. pombe RE007 Vpr strain | S. pombe RE007 Vpr strain, BacTiter-Glo ATP luminescence, 24 h; control for the full effect not named in the record | 360,000 compounds, 0.21% hits | Potency, µM (doses to about 92.2 µM), without a hit: at the highest dose activity change, negative = less growth; active = well fitted falling curve with a large enough effect; inconclusive = small, poorly fitted or top-dose-only effect; inactive = no such curve, though single readings can be large or run the other way;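 also: % is scaled to controls: 0 for no effect and ±100 for the full control effect; nearly all actives have a fitted effect of over 50% in size; the assay follows cell death caused by Vpr and the record does not say whether a fall means rescue or toxicity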
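Fission yeast strain RE007, carrying one chromosomally integrated HIV-1 vpr copy, was seeded at OD 0.01 in PMG+AL medium with 23 nL pinned compound. After 24 h at 30 °C and 99% humidity, viability was read by BacTiter-Glo luminescence.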
Cruzain noTriton: cruzain (T. cruzi) inhibition without detergent; 200,000 compounds, 2.3% hits; purified cruzain, Z-FR-AMC fluorescence, no detergent; Potency, µM, for inactives: max response, negative = inhibition, usual class: inhibitors; AID 1476;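 also: plate controls were enzyme without inhibitor for no effect and buffer without enzyme for full effect; nearly all actives have a fitted effect of over 40% in size; top concentration of the series not given in the record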
Target sequence (P25779 123-467 limits assumed): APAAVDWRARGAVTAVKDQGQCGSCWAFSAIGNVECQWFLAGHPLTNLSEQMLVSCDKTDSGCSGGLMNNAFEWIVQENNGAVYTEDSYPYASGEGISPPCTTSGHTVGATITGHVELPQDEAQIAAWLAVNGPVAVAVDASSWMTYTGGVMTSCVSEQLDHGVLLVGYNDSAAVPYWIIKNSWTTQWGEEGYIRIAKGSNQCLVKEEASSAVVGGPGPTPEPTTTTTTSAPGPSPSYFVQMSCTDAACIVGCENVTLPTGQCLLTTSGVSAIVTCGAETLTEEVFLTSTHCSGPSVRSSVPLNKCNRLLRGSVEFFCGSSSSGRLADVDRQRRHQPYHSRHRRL
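Detergent-free condition (0.00005% Triton X-100) in acetate buffer pH 5.5 with DTT. 1.5 nM enzyme and compound were pre-mixed 15 min, then 2 uM Z-FR-AMC substrate added; reaction progress from fluorescence change between first and third reads (60 s).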
2A StopGo: FMDV 2A StopGo reporter, luciferase signal | human cells with a luciferase reporter of 2A StopGo recoding; control for the full effect not named in the record | Potency, µM (top dose mostly 57.9 µM), inactives show at the top dose signal change, negative = less light | 410,000 compounds, 1.2% hits | AID 1159524; active = well fitted falling curve with a large enough effect; inconclusive = small, poorly fitted or top-dose-only effect; inactive = no such curve, though single readings can be large or run the other way; tested in HEK293T cells; also: % is scaled to controls: 0 for no effect and ±100 for the full control effect; nearly all actives have a fitted effect of over 45% in size; luciferase light after 4 h
NS1 function inh: influenza NS1 inhibition; Potency, µM (highest dose often 46.1 µM), for inactives: at the top dose activity, positive = more growth; 270,000 compounds, 0.4% hits; S. cerevisiae slowed by influenza A NS1, growth recovery by OD600; AID 2326; active means well fitted rising curve with a large enough effect; inconclusive means small, poorly fitted or top-dose-only effect; inactive means no such curve, though single readings can be large or run the other way; also: nearly all actives have a fitted effect of over 50% in size
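In this qHTS, NS1 from influenza A is expressed in budding yeast, where it slows growth. Cells are switched from glucose to 2% galactose medium (pH 6.0, -URA), treated with compound, and growth recovery is read at OD600.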
SARS PLP yeast: blocks SARS-CoV papain-like protease in a yeast assay | S. cerevisiae expressing SARS-CoV PLpro, growth rescue; control for the full effect not named in the record | Potency, µM (top dose mostly 32.9 µM), for the others: top-dose activity, positive = growth rescue | 330,000 compounds, 0.19% hits | AID 485353; active means well fitted rising curve with a large enough effect; inconclusive means small, poorly fitted or top-dose-only effect; inactive means no such curve, though single readings can be large or run the other way; also: 0% is about no effect; nearly all actives have a fitted effect of over 55% in size; growth read by luminescence after 48 h
Cruzain inh Det: inhibitors of Trypanosoma cruzi cruzain with detergent; AID 1478; purified cruzain, Z-FR-AMC fluorescence, 0.01% Triton; P25779; Potency, µM, without a hit: max response, negative = inhibition, hits mostly inhibitors; 200,000 compounds, 0.43% hits;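 also: plate controls were neutral wells for no effect and buffer without enzyme for full effect; nearly all actives have a fitted effect of over 40% in size; top concentration of the series not given in the record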
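Sodium acetate buffer (100 mM, pH 5.5) containing 5 mM DTT and 0.01% Triton X-100 hosted 1.5 nM cruzain and test compound for 15 min at room temperature. Cleavage of 2 uM Z-FR-AMC was then tracked by fluorescence.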
LASV entry inh: Lassa virus entry inhibition | 300,000 compounds, 1.2% hits | Potency, µM (highest dose often 37.9 µM), for the others: at the highest dose activity change, negative = inhibition, hits mostly inhibitors | Lassa virus pseudotype entry inhibition, cell reporter; control for the full effect not named in the record | AID 540256; active means well fitted inhibition curve with a large enough effect; inconclusive means small, poorly fitted or top-dose-only effect, or effect the other way; inactive means flat fitted curve, though single readings scatter; tested in HEK293 cells; also: % is scaled to controls: 0 for no effect and ±100 for the full control effect; nearly all actives have a fitted effect of over 50% in size; luciferase read-out
MARV entry inh: inhibitors of Marburg virus binding or cell entry; Marburg virus pseudotyped entry inhibition, cell reporter; control for the full effect not named in the record; about a third of the inactives were read at about 46 µM; 300,000 compounds, 1.8% hits; Potency, µM (series often up to 37.8 µM), without a hit: at the highest dose activity change, negative = inhibition, hits mostly inhibitors; active = well fitted inhibition curve with a large enough effect; inconclusive = small, poorly fitted or top-dose-only effect, or effect the other way; inactive = flat fitted curve, though single readings scatter; tested in HEK293 cells; about a fifth of its hits are not listed in these tables; also: % is scaled to controls: 0 for no effect and ±100 for the full control effect; luciferase read-out
The depositor's hits bear a star; ? = inconclusive; . = no result given; & = joins results of further samples; ! = a repeat was not active; [ ] = remark or other dose. Unless noted, calls follow the shape of the dose curve; as a rule, active = well fitted curve in the direction sought with a large enough effect; inconclusive = small, poorly fitted or top-dose-only effect, or another doubt; inactive = no such curve, though single readings can be large; an effect the other way counts as inactive or inconclusive. Potency is read from the fitted curve at half-maximal effect.

Fields: RE007 growth inh	Cruzain noTriton	2A StopGo	NS1 function inh	SARS PLP yeast	Cruzain inh Det	LASV entry inh	MARV entry inh
1) CCCCOc1ccc(CSc2n[nH]c(C)n2)cc1
→ -28%	1%	11%	-1%	-35%	-3.4%	-24%	?
2) CN(C)C(=O)c1cc(C(=O)c2ccccc2C(F)(F)F)c[nH]1
→ 4%	.	-24%	.	1%	.	-13%	2%[46.1 µM]
3) CC(C)C(=O)OCc1cn(-c2ccc(Cl)c(Cl)c2)nn1
→ -9%	.	0%	.	-1%	.	-3%	-6%[46.1 µM]
4) COc1cc(C(CC(=O)N2CCCC2)c2c(OC)cc(OC)c3ccc(=O)oc23)cc(OC)c1OC (configuration not stated)
→ -15%	.	0%	0%	1%	.	.	.
5) CCOc1ccc2cc(C3CC(c4ccco4)=NN3S(=O)(=O)c3ccccc3)c(Cl)nc2c1 (configuration not stated)
→ 12%	?	7%	?	17%	-5.6%	3%	8%
6) CC(C)(C)NC(=O)C1Cc2ccccc2CN1C(=O)Nc1ccccc1Cl (configuration not stated)
→ 1%	9%	-9%	-12%	-1%	1.8%	-2%	4%
7) Cc1nn(-c2ccccc2)c(C)c1/C=N/NC(=O)CSc1nnc(-c2ccccc2)n1-c1ccc(Cl)cc1
→ 7%	-1%	-22%	?	-1%	-5.8%	?	?
8) O=C(Nc1nnc(S(=O)(=O)N2CCCCC2)s1)c1ccc(Cl)cc1
→ -9%	2%	-2%&-13%	6%	-10%	-0.5%	2%[46.1 µM]	.
9) Cc1cc(C)c(OCC(=O)NCC2CCCO2)c(C)c1 (configuration not stated)
→ -12%	.	-4%	.	4%	.	0%	-3%[46.1 µM]
10) Cc1ccc(C(C(=O)NCc2ccco2)N(CCc2ccccc2)C(=O)Cn2nnc3ccccc32)o1 (configuration not stated)
→ 11%	-3%	-4%	-48%	-6%	-1.0%	?	?
11) CCn1c(SCCOc2ccc(Cl)cc2)nnc1-c1cccs1
→ -17%	11%	?	-91%	-7%	-6.2%	3%	-24%
12) COC(=O)c1ccccc1NC(=O)c1nn(-c2ccc(OC)cc2)c(=O)c2c1c1ccccc1n2C
→ .	0%	-12%	.	.	0.5%	9%[46.1 µM]	11%[46.1 µM]
13) Cc1ccc(S(=O)(=O)c2nc(-c3ccccc3Cl)oc2N2CCCCCC2)cc1
→ .	-11%	26%	.	.	-16%	?	?
14) COc1ccc(C2C(C(=O)N3CCN(c4ccccn4)CC3)CCC(=O)N2c2ccc(OC)cc2)cc1 (configuration not stated)
→ -5%	.	-10%	2%	3%	.	-9%[46.1 µM]	-2%[46.1 µM]
15) O=C(c1ccc(Br)cc1)N(C1=NCCCCS1)c1ccccc1
→ 11%	3%	?	8%	6%	0.8%	?	-18%
16) CCN(CC(=O)NCc1ccc(Cl)cc1)C(=O)CSc1ccc(F)cc1
→ 7%	.	-11%	.	-3%	.	-2%	-22%
17) Cc1ccc(N(C)C(=O)c2cc(S(=O)(=O)N3CCOCC3)cn2C)cc1
→ .	7%	-3%	.	.	-1.7%	-1%[46.1 µM]	.
18) CCCCNC(=O)c1ccccc1NC(=O)c1ccccc1N(C)S(C)(=O)=O
→ 5%	8%	1%	2%	0%	3.9%	-2%	?
19) O=C(NCc1ccc2c(c1)OCO2)c1ccc(Br)s1
→ 20%	.	-13%	2%	-3%	.	.	.
20) Nc1nonc1-n1nnc(C(=O)N/N=C/c2ccco2)c1CSc1ccccc1
→ -14%	.	10%	?	9%	.	.	.

Fields: RE007 growth inh	Cruzain noTriton	2A StopGo	NS1 function inh	SARS PLP yeast	Cruzain inh Det	LASV entry inh	MARV entry inh
21) COc1ccc(-c2cc(C(=O)NCc3cccnc3)no2)cc1OC
→ 4%	5%	49%[activator]	-11%	2%	0.6%	13%[14.3 µM]	-1%
22) Cc1cccc(C(=O)N2CCN(S(=O)(=O)N3CCCCC3)CC2)c1
→ -4%	.	-13%	11%	0%	.	-15%	1%
23) CCC1CCC(C(=O)NC(C(=O)NCCCN2CCCCC2C)C(C)C)CC1 (configuration not stated)
→ -1%	.	-11%	.	-7%	.	19%[46.1 µM]	2%[46.1 µM]
24) CC(=O)C1=C(c2ccccc2)OC(N)=C(C#N)C1c1ccc(O)cc1 (configuration not stated)
→ -1%	7%	1%	15%	18%	-3.8%	0%	27%
25) CCOc1ccc(/C=C/c2nc(C#N)c(NC3CCCCC3)o2)cc1
→ .	-22%	-15%	.	.	-3.3%	-21%[46.1 µM]	-12%[46.1 µM]
26) COc1ccc(C2c3ccc(O)cc3Oc3ncn4nc(-c5ccccn5)nc4c32)cc1 (configuration not stated)
→ -8%	.	?	?	1%	.	.	.
27) CC(C)(C)NS(=O)(=O)c1ccc2nc(NC(=O)c3cccnc3)sc2c1
→ .	10%	66%[activator]	.	.	-3.0%	-5%[46.1 µM]	.
28) COc1ccc2c(c1)c(=O)oc1c(C)c(OCc3ccc(C(=O)O)cc3)ccc12
→ 7%	.	-8%	-3%	-1%	.	.	.
29) O=C(CCc1ccc(O)cc1)c1c(O)cc(O)cc1O
→ 5%	-6%&4%&-14%	2%&-18%	13µM*!	8%	-8.5%&-8.6%&-18%	?	?
30) Cc1cccc(N2CCN(C(c3cccs3)c3nnnn3C(C)(C)C)CC2)c1C (configuration not stated)
→ -7%	-5%	.	-68%	1%	0.6%	?	12µM*!
31) CCC(C)NC(=O)COc1ccc(S(=O)(=O)N2CCOCC2)cc1 (configuration not stated)
→ 5%	9%	.	?	-1%	3.5%	1%	3%
32) O=C(/C=C/c1ccccc1)N/C(=C/c1ccccc1)C(=O)Nc1cccc(C(=O)O)c1
→ 7%	.	11%	.	1%	.	-3%	3%[14.2 µM]
33) O=C1CCN(c2ccc([N+](=O)[O-])cc2F)CC1
→ 15%	.	2%	.	0%	.	-7%	21%[46.1 µM]
34) c1ccc(CNc2c3ccccc3nc3ccccc23)cc1
→ -11%	.	-19%	-3%	-2%	.	.	.
35) CC(C)C[C@H](NC(=O)Nc1ccc(Oc2ccccc2)cc1)C(=O)O
→ -20%	-6%	-2%	11%	0%	-3.0%	-2%	1%
36) O=C1NCC(COCC2CC=CCC2)O1 (configuration not stated)
→ -6%	1%	17%	-2%	-2%	4.9%	-1%	?
37) On1c(-c2ccccc2Cl)nc2ncccc21
→ 7%	.	-22%	3%	2%	.	.	.
38) CCCN(CCC)C(=O)Cn1c(=O)n(-c2ccc(Cl)cc2)c(=O)c2c3c(sc21)CCCC3
→ .	-11%	-22%	.	.	-0.6%	5%[46.1 µM]	?
39) CC1Cc2ccccc2N1C(=O)CCS(=O)(=O)c1cccs1 (configuration not stated)
→ -5%	1%	11%	-49%	0%	2.5%	16%	19%
40) CCCCNC(=O)c1ccc(N2CCC3(CC2)OCCO3)c([N+](=O)[O-])c1
→ 27%	5%	0%	-2%	17%	-2.7%	?	-6%

Fields: RE007 growth inh	Cruzain noTriton	2A StopGo	NS1 function inh	SARS PLP yeast	Cruzain inh Det	LASV entry inh	MARV entry inh
41) COc1ccc(C)c2sc(N(Cc3cccnc3)C(=O)c3cccs3)nc12
→ .	?	-12%	.	.	-4.8%	?	.
42) Fc1cc(F)c2nc(Nc3nc4c(F)cccc4s3)sc2c1
→ -6%	?	-12%	1%	-25%	1.5%	?	?
43) COc1cc(NC(=S)Nc2ccc(Br)cc2Cl)c(OC)cc1Cl
→ -7%	-2%	-13%	15%	-3%	-5.9%	-2%	?
44) COC(=O)CCC(=O)OC1(C)C(=O)C=C2C=C(C3CC3)N(CCc3c[nH]c4ccccc34)C=C2C1=O (configuration not stated)
→ 4%	.	-2%	12%	0%	.	.	13%&13%[14.2 µM]
45) COc1ccc(OC)c(C2C(C(=O)Nc3ccccc3OC)=C(C)Nc3nc(CCCO)nn32)c1 (configuration not stated)
→ -4%	-2%	-6%	-2%	3%	-0.1%	.	0%
46) COc1ccc(OC)c(NC(=O)CSc2nncc3ccccc23)c1
→ -5%	.	0%	10%	-1%	.	-2%	-16%
47) CCOc1ccc(NS(=O)(=O)c2ccc(NC(=O)[C@@H]3CCCC[C@@H]3C(=O)O)cc2)cc1
→ -9%	-6%	-20%	18%	-3%	-5.4%	-14%	7%
48) Cc1ccc(CNC(=O)CN2C(=O)COc3ccc(S(=O)(=O)Nc4ccccc4)cc32)cc1
→ .	-5%	0%	.	.	-4.3%	10%[46.1 µM]	.
49) O=c1[nH]n(CC2COC3(CCCCC3)O2)c(=O)c2ccccc12 (configuration not stated)
→ 20%	4%	.	-6%	-10%	2.2%	11%	13%
50) COc1ccc(C2C3=C(N=C4SCC(=O)N42)c2ccccc2CC3)cc1OC (configuration not stated)
→ 16%	?	?	10%	-7%	-3.6%	-22%	-1%
51) O=C(O)C1CCCN(S(=O)(=O)c2ccc(Cl)s2)C1 (configuration not stated)
→ 8%	12%	0%	4%	2%	1.4%	.	.
52) Cc1ccc(NC(=O)CN(C)C(=O)C2CC(=O)N(Cc3ccccc3)C2)cc1 (configuration not stated)
→ -3%	.	12%	4%	19%	.	.	.
53) COc1ccc(-c2[nH]c(-c3ccccc3)nc2SCC(=O)Nc2ccc3c(c2)OCCO3)cc1
→ .	?	-10%	.	.	-5.4%	?	?
54) O=C1c2cccnc2C(Nc2ccccc2Br)N1Cc1ccco1 (configuration not stated)
→ 5%	.	-11%	.	2%	.	14%[46.1 µM]	6%[46.1 µM]
55) COc1ccc(C(CNC(=O)c2cccc(S(=O)(=O)Nc3ccc(C)cc3)c2)N2CCOCC2)cc1 (configuration not stated)
→ -23%	.	27%	.	-1%	.	-11%[46.1 µM]	-3%
56) Cc1ccc2c(CSc3nnnn3C)cc(=O)oc2c1
→ -8%	.	11%	0%	1%	.	1%	0%[46.1 µM]
57) O=C(CSc1nc2ccccc2o1)Nc1nccs1
→ -5%	.	30%	.	-6%	.	14%[46.1 µM]	?

Bioassay records (PubChem BioAssay)
